From PubChem
LASV entry inh = inhibitors of Lassa virus binding or entry into cells; Lassa virus pseudotyped entry inhibition, cell-based qHTS; control for the full effect not named in the record; many of its hits are not listed in these tables; Potency, µM (titrated, usually from 49.2 µM), for inactives: top-dose activity change, negative = inhibition, hits mostly inhibitors; actives 4.1% (n = 18,000); AID 720533; active = well fitted inhibition curve with a large enough effect; inconclusive = small, poorly fitted or top-dose-only effect; inactive = no such curve, though single readings can be large or run the other way; tested in HEK293 cells; also: luciferase read-out
MARV entry inh = Marburg virus entry inhibition. Marburg virus pseudotype entry/binding inhibition, cell-based; control for the full effect not named in the record; many of its hits are not listed in these tables. Potency, µM (series often up to 49.2 µM), for the others: at the highest dose activity change, negative = inhibition, hits mostly inhibitors. actives 6.5% (n = 18,000); active means well fitted inhibition curve with a large enough effect; inconclusive means small, poorly fitted or top-dose-only effect; inactive means no such curve, though single readings can be large or run the other way; tested in HEK293 cells; also: luciferase read-out
* = called active by the depositor; u = inconclusive; x = not tested or not shown; & = joins results of further samples; [ ] = dose if it differs, or a comment. % is scaled to controls: 0 for no effect and ±100 for the full control effect; potency is read from the fitted curve at half-maximal effect.

| Compound | MARV entry inh | LASV entry inh |
| --- | --- | --- |
| CN1C(=O)NC(=O)C(C)(C2=CCCCC2)C1=O (stereo not given) | 14.3%&7.2% | -7.2%&-4.8% |
| CN(C(=O)COc1nc2ccccc2s1)c1ccccc1 | 3.3% | -3.3% |
| CCCCC[C@H](O)/C=C/[C@H]1C=CC(=O)[C@@H]1CCCCCCC(=O)O | 32.9%&13.1%[activator] | -11.4%&-10.9% |
| N#Cc1ccc(NCCNCC(=O)N2N=CCC2C#N)nc1 (stereo not given) | -26.2% | 8.2% |
| Clc1cnccn1 | 6.3%[17.8 µM] | -0.2%[17.8 µM] |
| Cc1ccc(S(=O)(=O)N[C@@H](Cc2ccccc2)C(=O)CCl)cc1 | u | 35.5µM* |
| Cc1ccc(C)c(OCCCC(C)(C)C(=O)O)c1 | 1.0% | -14.1% |
| CC(C)C[C@@H](CC(=O)N[C@@H](CCCN)CC(=O)N[C@@H]1CCCC[C@H]1C(=O)N[C@H](CC(=O)N[C@@H](CCC(=O)O)CC(=O)O)Cc1c[nH]c2ccccc12)NC(=O)[C@@H]1CCCC[C@H]1N | 3.2% | 9.9% |
| COc1ccccc1C(=O)N[C@@H]1c2ccccc2C2(CCN(Cc3ccc4c(c3)OCO4)CC2)[C@H]1O | u | u |
| CCCCCCCCCCCC | -13.2% | -6.5% |
| Nc1ccn([C@@H]2CC[C@H](CO)O2)c(=O)n1 | 7.1%[17.8 µM] | 9.0%[17.8 µM] |
| CC(=O)OC[C@H]1O[C@H](CCON=C(C)CCN2CCc3nc(-c4ccccc4)c(-c4ccccc4)cc3C2)C=C[C@H]1OC(C)=O | u | 12.9%[8.59 µM] |
| C=CCC(C)(Nc1ccccc1)C(=O)OCC (stereo not given) | -10.3% | -1.5% |
| COCOc1ccc(OC)cc1C(=O)C1O[C@H]1c1ccc(OC)c(Br)c1 (stereo not given in full) | 31.3%[activator] | u |
| ClC(Cl)Cl | 14.9% | -0.1% |
| CCCCCCCCCCCCCCCCCCOP(=O)([O-])OC1CC[N+](C)(C)CC1 | -13.8%[17.8 µM] | -50.3%[17.8 µM] |
| CCCC(C)C1(CC)C(=O)NC(=O)NC1=O (stereo not given) | -0.4% | -6.0% |
| C[C@]12CCC(=O)C=C1C=C[C@@H]1[C@@H]2CC[C@@]2(C)[C@H]1CC[C@@]21CCC(=O)O1 | 11.8% | 3.7% |
| CC(C)CCON=O | -22.8% | -6.0% |
| Cc1ccn(CCC(=O)NCC2Cc3cc(Cl)cc(-c4ccc5[nH]ccc5c4)c3O2)n1 (stereo not given) | u | 0.9% |
| CC(C)C(N)C(=O)O (stereo not given) | 12.5% | 0.3% |
| COc1ccc(-c2ccc(N)[n+](CCCC(=O)O)n2)cc1 | 6.7%[17.8 µM] | -0.5%[17.8 µM] |
| CCCCC/C=C\C/C=C\C/C=C\C/C=C\CCCC(=O)NCCCl | 7.5% | 3.7% |
| C[C@@H](Cc1ccccc1)N(C)C | -6.0% | -14.8% |
| C/C(=C\C(=O)OCCCCCCCCC(=O)O)C[C@@H]1OCC(C[C@H]2O[C@H]2[C@@H](C)[C@H](C)O)[C@@H](O)[C@H]1O (stereo not given in full) | 16.9% | 6.7% |
| CCC(Cc1c(I)cc(I)c(O)c1I)C(=O)O (stereo not given) | 3.0% | -19.4% |
| Oc1cc(-c2nc3ccccc3s2)cc2c1OCCN(Cc1cccn1-c1ncccn1)C2 | -2.2% | -28.8% |
| O=C1N(Cc2ccc(Br)cc2)c2cccc(Br)c2[C@@]12O[C@H](COc1ccccc1)CC1=CCCC12 (stereo not given in full) | 11.3%[8.59 µM] | -18.3%[8.59 µM] |
| COC(=O)C1CCCCN1Cc1ccc2c(c1)CN(Cc1cnn(-c3ccccc3)c1)CCO2 (stereo not given) | -15.0% | 5.7% |
| Cn1cnc2c(NCc3ccccc3)nc(NCCO)nc21 | 2.5%&2.4%&15.8%&2.0% | -1.5%&4.3%&6.9%&-0.1% |

Laid out differently: results already given.
COc1ccc(-c2ccc(N)[n+](CCCC(=O)O)n2)cc1
  MARV entry inh: 6.7%[17.8 µM] | LASV entry inh: -0.5%[17.8 µM]

CC(C)C(N)C(=O)O (stereo not given)
  MARV entry inh: 12.5% | LASV entry inh: 0.3%

CC(C)CCON=O
  MARV entry inh: -22.8% | LASV entry inh: -6.0%

O=C1N(Cc2ccc(Br)cc2)c2cccc(Br)c2[C@@]12O[C@H](COc1ccccc1)CC1=CCCC12 (stereo not given in full)
  MARV entry inh: 11.3%[8.59 µM] | LASV entry inh: -18.3%[8.59 µM]

The list continues:
| Compound | MARV entry inh | LASV entry inh |
| --- | --- | --- |
| Cc1cc(C(=O)Nc2ccccc2-c2nc(CNC(=O)C3COc4ccccc4O3)c(C)o2)c(C)o1 (stereo not given) | u | 2.1% |
| Cc1c(C(=O)NCCCc2ccncc2)cnn1-c1ncc2c(n1)-c1ccccc1CC2 | -19.4% | -17.9% |
| CC(=O)C1=C(C)N(Cc2ccccc2)C(=O)N[C@H]1c1cccc(C(F)(F)F)c1 | 20.0% | -0.3% |
| NCCC[C@@H](CC(=O)N[C@@H]1CCNC[C@H]1C(=O)N[C@H](CC(=O)N[C@@H](CCC(=O)O)CC(=O)O)Cc1c[nH]c2ccccc12)NC(=O)C[C@H](Cc1c[nH]c2ccccc12)NC(=O)[C@@H]1CNCC[C@H]1N | 23.9% | 2.3% |
| COc1ccc(CCC(=O)c2c(O)cc(OC3OC(CO)C(O)C(O)C3O[C@@H]3OC(C)C(O)C(O)C3O)cc2O)cc1O (stereo not given in full) | -1.9% | -1.9% |
| OC[C@@H]1O[C@@H](O)[C@H](O)[C@H](O)[C@@H]1O | 21.5% | -5.8% |
| CC(=O)OCOCC(=O)OCO[P+](=O)C(OCOC(C)=O)c1cc([N+](=O)[O-])ccc1Oc1ccc(Br)cc1 (stereo not given) | 12.9% | -0.7% |
| O=C(c1ccccc1Cl)N1CCSCCS1(=O)=O | 62.5%[activator] | 30.3%[activator] |
| O=C1CCc2cccc3c2N1CC3 | 23.6% | -17.9% |
| O=C(/C=C/c1ccc(OCc2ccccc2)cc1)c1cccs1 | 60.0%[activator] | 0.9% |
| CC1(C)OC2CC3C4CCC5=CC(=O)CCC5(C)C4(F)C(O)CC3(C)[C@]2(C(=O)CCl)O1 (stereo not given in full) | -12.1% | -11.7% |
| O=S1(=O)c2cccc(Cl)c2OC[C@H](c2ccccc2)N1Cc1ccc(F)cc1 | u | -14.9% |
| CCCN(CCC)C1CCc2ccc(O)cc2C1 (stereo not given) | -8.3% | -5.6% |
| CC1(OC(=O)C2CCCC2)C(=O)C=C2C=C(c3ccsc3)N(CCc3ccccn3)C=C2C1=O (stereo not given) | 40.8%[activator][8.59 µM] | 13.1%[8.59 µM] |
| Cc1cc(S(=O)(=O)NCc2nc(N3CCCC3)c3cc(Cl)ccc3n2)c(C)s1 | u | -15.9% |
| CC(C)[C@@H]1NC(=O)[C@@H]2CSCCS(=O)(=O)N2C1=O | 7.3% | x |
| CC(=O)Nc1ccccc1-c1nc(CNC(=O)c2ccc(-n3cccn3)cc2)c(C)o1 | u | -2.6% |
| CCC(C)C(=O)OC1C[C@@]2(C)C(c3ccoc3)OC(=O)CC23OC2(C)OC34C(OC(=O)C(C)C)[C@]3(O)C(OC(=O)C5(C)OC5C)[C@]5(C)CC3(O)[C@](C)(C5CC(=O)OC)C14O2 (stereo not given in full) | 14.1µM* | 3.3% |
| O=c1ccc2ccc(O[C@@H]3O[C@H](CO)[C@@H](O)[C@H](O)[C@H]3O)c(O)c2o1 | -4.4% | 2.9% |
| O=C(NCC1CCCCC1)c1nnc(C(=O)NCC2CCCCC2)c2c1[nH]c1ccccc12 | 0.8% | -4.2% |
| C=CS(=O)(=O)O | 22.4µM* | -13.8% |
| O=C(C=Cc1ccccc1)Nc1cccc(C(=O)N2CCCCC2)c1 | 85.5%[activator] | 28.6% |
| CC1C(=O)N(Cc2cn(CCC3OCCCO3)nn2)CCS(=O)(=O)N1Cc1ccc(-c2cccc(N(C)C)c2)cc1 (stereo not given) | -4.7% | 6.6% |
| O=c1c(O)c(-c2ccc(O)c(O)c2)oc2c(O)c(O)cc(O)c12 | u | 8.3% |
| CC(C)C[C@@H](CC(=O)N[C@@H](CCC(=O)O)CC(=O)O)NC(=O)[C@@H]1CCCC[C@H]1NC(=O)C[C@H](CCCN)NC(=O)C[C@H](CO)NC(=O)[C@@H]1CCCC[C@H]1N | 23.6% | 8.4% |
| CCN(CC)CCO[C@H]1CC[C@@]2(C)C(=CC[C@@H]3[C@@H]2CC[C@]2(C)C(=O)CC[C@@H]32)C1 | -7.2% | 9.4% |
| Cc1cccc(CN2CCN(C3CN(Cc4cn(Cc5ccccc5F)nn4)S(=O)(=O)C3)CC2)c1 (stereo not given) | 7.5% | 23.5% |
| NCC(=O)N[C@@H](CCCN=C(N)N)C(=O)NCC(=O)N[C@@H](CC(=O)O)C(=O)N[C@@H](CC(N)=O)C(=O)N1CC[C@@H](C(=O)O)C1 | 21.2% | -14.5% |
| Cc1cc2c(c(=O)n1-c1ccccc1)[C@H]1O[C@](c3ccsc3)(Cc3ccccc31)O2 | u | -16.8%[8.59 µM] |
| CCS(=O)CCSP(=O)(OC)OC (stereo not given) | 2.5% | 3.8% |
| CC1(C)O[C@@H]2[C@@H](CO[C@@]3(COS(N)(=O)=O)OC(C)(C)O[C@@H]23)O1 | -21.5% | -5.6% |
| C[C@H]1[C@H](C)CC[C@]2(C=O)CC[C@]3(C)C(=CC[C@@H]4[C@@]5(C)C[C@@H](O)[C@H](O)[C@@](C)(CO)[C@@H]5CC[C@]43C)[C@H]12 | 3.0% | -18.4% |
| COc1ccc([C@H]2C[C@@H](O)[C@H](n3cc(COC(=O)c4ccccc4)nn3)CN2C(=O)C2CCCCC2)cc1 | u | -21.7% |
| Fc1ccc(N2CCN(Cc3ccc4c(c3)CN(Cc3cccn3-c3cccnc3)CCO4)CC2)cc1 | u | -19.6% |
| C=C(C)[C@]12C[C@@H](C)[C@@]34O[C@](Cc5ccccc5)(O[C@@H]1[C@@H]3C=C(COC(=O)Cc1ccc(O)c(OC)c1)C[C@]1(O)C(=O)C(C)=C[C@@H]41)O2 | 15.8µM* | u |
| FC1(F)C(F)(F)C(F)(F)C2(F)C(F)(F)C(F)(F)C(F)(F)C(F)(F)C2(F)C1(F)F (stereo not given) | 9.9% | -11.9% |
| COc1ccccc1-c1nc(NCc2cnc(C)cn2)c2ccccc2n1 | 3.0% | 11.9% |
| COc1ccccc1-c1cc2c(c3c1ccn3C)C1CCC2O1 (stereo not given) | 10.8% | -14.6% |
| CC1(OC(=O)C2CCCC2)C(=O)C=C2C=C(c3ccsc3)N(C(CO)CO)C=C2C1=O (stereo not given) | 17.9%[8.59 µM] | -19.8%[8.59 µM] |
| Cc1ccc(S(=O)(=O)N2CCC(=O)N(C(COC(=O)Nc3ccccc3)Cc3ccccc3)CC2)cc1 (stereo not given) | u | u |
| NC(Cc1ccc(Cl)cc1)C(=O)O (stereo not given) | 16.0% | 17.9% |
| CC(N)(C(=O)O)c1ccc(-c2nn[nH]n2)cc1 (stereo not given) | 16.8% | 20.5% |
| COc1cc(C2CC(=O)Oc3cc(C)c(Cl)cc32)cc(OC)c1OC (stereo not given) | 18.0% | -14.0% |
| Cc1ccc2nc(SCC(=O)N3CCC4(CC3)CC4C(=O)Nc3ccc(F)c(F)c3)[nH]c2c1 (stereo not given) | -23.0% | -4.1% |
| COC(=O)CC[C@@H](C)[C@H]1CC[C@H]2[C@@H]3CC[C@@H]4C[C@H](O)CC[C@]4(C)[C@H]3C[C@H](O)[C@]12C | -29.3% | 4.2% |
| CC(C)C1C(=O)N(Cc2cn(CCC3OCCO3)nn2)CCS(=O)(=O)N1Cc1ccc(-c2ccncc2)cc1 (stereo not given) | 68.8%[activator] | 13.6% |
| COc1ccc(-c2coc3c(OC)c(OC)cc(OC)c3c2=O)cc1 | 14.9% | -10.2% |
| CC(C)C[C@H](NC(=O)[C@@H](Cc1c[nH]c2ccccc12)NC(=O)[C@H](Cc1ccc(O)cc1)NC(=O)[C@H](CO)NC(=O)[C@H](Cc1c[nH]c2ccccc12)NC(=O)[C@H](Cc1cnc[nH]1)NC(=O)[C@@H]1CCC(=O)N1)C(=O)N[C@@H](CCCN=C(N)N)C(=O)N1CCC[C@@H]1C(=O)NCC(N)=O | 23.4% | 0.4% |
| CC[C@H](C)[C@@H](NC(=O)O[C@@H]1Cc2cc(OC)ccc2O[C@H]1c1cccc(OC)c1)C(=O)OC | -2.9% | -3.8% |
| CC(C)C[C@H]1COc2cccc(N3CCCC3)c2S(=O)(=O)N1 | 14.6% | 6.6% |
| CCCCOCC1CN(CCCC)S(=O)(=O)c2c(F)cccc2O1 (stereo not given) | -1.9% | 66.0%[activator] |
| C=CCOC(=O)C(C(=O)CC)[C@@H](NC(=O)OC)c1ccc(F)cc1 (stereo not given in full) | -24.9%[8.59 µM] | -18.0%[8.59 µM] |
| O=C(NCc1nnc2n1CCN(Cc1cc3c(cc1Cl)OCO3)CC2)C1CCOC1 (stereo not given) | 2.4% | -4.2% |
| COc1ccc([C@H]2C[C@@H](n3cc(-c4ccc(F)cc4)nn3)[C@H](O)CN2CC2CCCCC2)cc1 | -29.0% | -25.0% |
| c1cncc(C2CCCN2)c1 (stereo not given) | 25.7% | 11.1% |
| COc1ccc(-c2ccc(=N)n(CCCC(=O)O)n2)cc1 | 3.6%&1.8% | -21.2%&-7.3% |
| CC(C)CCCC(C)C1CCC2C3C(=O)C=C4CC(O)CC[C@@]4(C)C3CC[C@@]12C (stereo not given in full) | 8.4% | -8.1% |

The list is partial; count on the stated rates, not on these rows.
